High-throughput results (PubChem BioAssay)
MT1-MMP act inh – blockers of MT1-MMP proenzyme processing, primary screen, HT1080 RFP-PRO-GFP cells, GFP/RFP fluorescence; AID 651647, 2012; GFP/RFP ratio change, % at 20 µM; Matrix metalloproteinase-14 (Homo sapiens), P50281; GFP/RFP ratio fluorescence, overnight; percent of plate control window, DMSO zero; hit rate 0.061% among 360,000;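 active = GFP/RFP ratio change of at least 30% with cell ATP level not reduced by more than half and red fluorescence within 50% of control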; also: strong numbers were not always called active
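system = RFP-PRO-GFP reporter HT1080 cells | dosing = 20 µM single dose, 1% DMSO | timing = overnight cell settling, then overnight compound exposure, 37 °C, 5% CO2 | read-out basis = GFP/RFP fluorescence ratio | controls = DMSO and RFP-L50D-GFP cell wells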
CSC inhib – cancer stem cell viability inhibitors, primary screen, luminescence | inhibition, % at 7.5 µM | AID 2717, 2010 | hit rate 1.1% among 300,000 | cancer stem cell-like cells viability;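 active = mean at 75% or more and at least half the replicates too; inconclusive = mean and replicates disagree; tested in HMLE shEcad cells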;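 also: 0% = median of negative and 100% = median of positive control wells; the first replicate is given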
eIF4H FP inh – human eIF4H binding inhibitors, primary screen, translation initiation inhibitor project, biochemical, uHTS, fluorescence polarization. Eukaryotic translation initiation factor 4H (Homo sapiens), Q15056. eIF4H fluorescence polarization binding assay. inhibition, % at 35 µM. hit rate 0.94% among 290,000. AID 2012, 2009;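 active = 50% or more with normal probe brightness, or confirmed in later tests; inconclusive = above 50% with abnormal brightness, or retests that disagree; inactive = below 50% or failed in later tests; about a fifth of its hits are not listed in these tables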;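 also: calls also rest on retests at 20 µM and on dose response follow-up; 0% = protein and probe with vehicle and 100% = probe without protein; strong numbers were not always called active; many hits fall short of the cut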
Rce1 inh – yeast Rce1p protease inhibitors, primary screen, biochemical, fluorescence, cell-free homogeneous; yeast membranes, quenched prenylated peptide cleavage fluorescence; hit rate 0.27% among 290,000; calls only; AID 2563, 2010;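 active = fall in fluorescence gain of 50% or more versus controls, with final raw signal at or below 3038400; inconclusive = same 50% fall but final raw signal above 3038400; inactive = fall in fluorescence gain under 50%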;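 also: plate controls were neutral control wells for no effect and wells lacking membranes for full effect; tested at 10 µM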
PABP FP inh – PABP poly(A) RNA binding inhibitors, primary screen, biochemical, fluorescence polarization, uHTS. hit rate 1% among 290,000. inhibition, % at 35 µM. Polyadenylate-binding protein 1 (Homo sapiens), P11940;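 active = 50% or more with normal probe brightness, or confirmed in later tests; inconclusive = above 50% with abnormal brightness, or retests that disagree; inactive = below 50% or failed in later tests; about a fifth of its hits are not listed in these tables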;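 also: calls also rest on retests at 20 µM and on dose response follow-up; controls were probe without protein and protein plus probe with vehicle; some compounds called inactive have numbers as strong as hits; many hits fall short of the cut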
Target sequence (P11940 whole entry, looked up): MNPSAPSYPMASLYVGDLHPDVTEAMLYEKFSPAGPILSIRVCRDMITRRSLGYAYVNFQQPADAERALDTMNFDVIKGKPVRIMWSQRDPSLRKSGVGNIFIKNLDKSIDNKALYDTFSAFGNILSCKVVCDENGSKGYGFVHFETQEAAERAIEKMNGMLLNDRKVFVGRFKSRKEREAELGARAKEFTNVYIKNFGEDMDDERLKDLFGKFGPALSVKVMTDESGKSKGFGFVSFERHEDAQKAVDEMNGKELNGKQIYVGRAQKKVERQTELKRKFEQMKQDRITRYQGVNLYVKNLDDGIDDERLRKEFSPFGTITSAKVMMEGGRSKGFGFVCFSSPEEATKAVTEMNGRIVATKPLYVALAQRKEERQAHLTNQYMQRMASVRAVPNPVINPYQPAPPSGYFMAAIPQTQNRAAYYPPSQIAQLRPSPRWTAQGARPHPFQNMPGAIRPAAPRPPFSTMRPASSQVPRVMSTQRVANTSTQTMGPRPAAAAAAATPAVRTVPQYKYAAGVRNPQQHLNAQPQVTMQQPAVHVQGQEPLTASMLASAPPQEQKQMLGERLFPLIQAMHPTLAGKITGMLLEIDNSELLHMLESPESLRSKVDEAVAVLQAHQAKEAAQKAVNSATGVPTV
UUG fidelity – modulators of yeast start codon fidelity, primary screen, whole organism, S. cerevisiae, single point, plate reader. S. cerevisiae UUG-firefly luciferase reporter, luminescence/redox ratio. activity score, % at 18.7 µM. hit rate 0.13% among 350,000;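 active = replicate mean at a twofold rise or more, about +100% in these data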;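 also: firefly luciferase made from a UUG start codon reports start codon fidelity; reporter light over untreated wells divided by growth signal over untreated wells; some hits fall short of that in this replicate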
Env fusion inh – inhibitors of HIV-1 Env-driven cell-cell fusion, primary screen, HeLa-JRFL effector, CEM21 target cells, luciferase; AID 651610, 2012; inhibition, % at 12.3 µM; hit rate 1.1% among 360,000;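 active = mean replicate inhibition score of at least 50 and every replicate individually at or above 50; inconclusive = only one of the two criteria met; inactive = mean below 50 and not all replicates reaching 50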;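 also: 0% = plate neutral controls and 100% = maraviroc near 300 nM; one replicate is shown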
MT1-MMP act inh RFP – also measured in MT1-MMP act inh; calls as there; RFP signal change, %; measured here: RFP expression control read;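 0 = vehicle wells; hits needed this value within 50% of zero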
Numbers without * were called inactive; i = inactive; ? = inconclusive; . = not tested or not shown.

SMILES | MT1-MMP act inh | MT1-MMP act inh RFP | CSC inhib | eIF4H FP inh | Rce1 inh | PABP FP inh | UUG fidelity | Env fusion inh
COc1ccccc1C(=O)N1CCC(C(=O)c2ccc(F)cc2)CC1 | 5 | -1 | -8 | 2 | i | 3 | 1 | ?
Cn1nnnc1SCCNCc1cc(Cl)ccc1OCc1ccccc1 | 1 | -15 | 3 | -19 | i | ? | . | -12
O=C(Nc1ccc(Cl)cc1)C1CCCC1 | 2 | -1 | . | 6 | i | 7 | -10 | -6
CCOc1ccc(S(=O)(=O)NCCC(=O)OCC(=O)NC(=O)c2cccn2C)cc1 | 0 | 4 | -24 | . | . | . | -10 | -4
COc1ccccc1-c1noc(-c2ccccc2C(=O)NCc2ccco2)n1 | -1 | -6 | . | 5 | i | 4 | -8 | 8
Cn1c(=O)c(=O)n(C)c2cc([N+](=O)[O-])c([N+](=O)[O-])cc21 | 6 | -2 | 11 | -11 | i | 1 | . | -3
CCOC(=O)Cc1csc(NC(=O)CSc2nnc(-c3ccc(OC)cc3)n2C)n1 | -8 | -3 | 1 | 7 | i | 3 | 4 | 23
Cc1nnc(SC(C)C(=O)Nc2ccc(Cl)cn2)n1Cc1ccccc1 (stereo unspecified) | 0 | 1 | -7 | 1 | i | -6 | -14 | .
COC(=O)c1cc(OC)c(OC)cc1NC(=S)Nc1cccc(Cl)c1 | 4 | 1 | . | -7 | i | 2 | -24 | .
CC(=O)Nc1ccc(-c2nc3c(C)cccc3[nH]2)cc1 | 6 | 4 | -13 | -6 | i | -2 | -25 | -177
O=C([C@H]1O[C@@H](n2ccc(=O)[nH]c2=O)[C@H](O)[C@@H]1O)N1CCC(F)(F)CC1 | 0 | 2 | . | . | . | . | -18 | -15
O=c1cc(N2CCN(c3ccccc3)CC2)[nH]c(=O)n1Cc1ccc(F)cc1 | -12 | -8 | -1 | -8 | i | 0 | -12 | -79
N/C(=N\OC(=O)Nc1cccc(C(F)(F)F)c1)c1ccno1 | 2 | -2 | 5 | -9 | i | -2 | 4 | -6
O=C(O)/C=C\c1cccc(-n2cnnn2)c1 | 0 | 5 | -5 | -5 | i | -11 | . | .
O=C1C2ON(c3ccccc3)C(c3ccccc3F)C2C(=O)N1c1ccccc1 (stereo unspecified) | 2 | 2 | -2 | 0 | i | -4 | -10 | .
O=C(N/N=C\c1cccs1)c1ccccc1-n1cccc1 | -2 | 4 | -10 | -4 | i | 8 | -15 | 2
COc1ccc(OC)c(NC(=O)CNC(=O)c2cccs2)c1 | 2 | 3 | -8 | 2 | i | 4 | -5 | 44
CCc1nccn1CCC(=O)N1CCCC(N2CCN(c3ccccc3C)CC2)C1 (stereo unspecified) | 1 | 3 | -8 | 2 | i | 0 | -4 | .
c1ccc2c(c1)[nH]c1nc(SCCN3CCOCC3)nnc12 | 1 | -4 | 9 | 1 | i | 14 | -20 | -5
O=C(NCCc1c[nH]c2ccccc12)OCCCCOC(=O)NCCc1c[nH]c2ccccc12 | 12 | -25 | 52 | . | i | . | -3 | 26
Cc1ccc(C(=O)N2CCN(C)CC2)cc1[N+](=O)[O-] | 2 | 5 | 5 | -2 | i | -7 | -14 | -1
Cc1nn(C)c(C)c1/C=C/C(=O)c1cccs1 | 9 | -1 | -16 | . | i | . | -11 | -85
O=C(CSc1nnc(CNC(=O)c2cccs2)o1)Nc1ccc(Br)cc1 | 3 | 6 | -13 | -13 | i | 13 | -15 | 5
COc1ccc(OC)c(-c2csc(NC(=O)Cc3ccc(OC)c(OC)c3)n2)c1 | -2 | -14 | 8 | 1 | i | 2 | -14 | -5
Cc1c(C)c2ccc(OC(C)C(=O)N3CC[C@@]4(O)CCCC[C@H]4C3)cc2oc1=O (stereo partly specified) | 5 | 8 | -6 | -11 | . | -6 | 1 | .
CCOc1ccccc1NC(=O)CNC(=O)N1CC(=O)Nc2ccccc21 | 1 | 3 | -7 | 16 | i | 2 | -21 | 1
Cc1ccsc1C1Nc2ccccc2-c2nc3ccccc3n21 (stereo unspecified) | 4 | -3 | 59 | -7 | i | -6 | . | 26
CCOc1ccc(C(c2nnnn2C(C)(C)C)N2CCN(C(=O)c3ccco3)CC2)cc1 (stereo unspecified) | -3 | -4 | -10 | -6 | i | -1 | -5 | -68
Cc1ccsc1C(=O)OCC(=O)N1CCN(c2ccccc2)CC1 | 0 | 2 | 2 | . | . | . | . | 11
CC(c1ccc(F)cc1)n1c(Cn2ncc3ccccc3c2=O)n[nH]c1=S (stereo unspecified) | 4 | -8 | 4 | -7 | i | -6 | . | -15
Cc1ccc(C)c(-n2cc(CNCCCn3cccn3)c(-c3ccccc3)n2)c1 | 4 | -1 | . | -1 | i | -3 | 1 | 69*
C=CCn1c(NCc2ccco2)nc2ccccc21 | -2 | 0 | . | -7 | i | 6 | -6 | -17
c1ccc(-c2nnc(CN3CCN(C(c4ccccc4)c4ccccc4)CC3)o2)cc1 | -5 | -1 | -7 | -8 | i | -1 | -14 | -2
Cc1sc(NC(=O)c2ccccc2F)c(CN2CCCCC2)c1C | 0 | 1 | 0 | -2 | i | 3 | . | -66
Cc1cccc(N2CCN(C(=S)c3ccc4c(c3)OCO4)CC2)c1 | -6 | -10 | . | . | . | . | -21 | -14
CC1=CC2=C(C=O)C(=O)C(C)(O)C(O)C2=CO1 (stereo unspecified) | 1 | 7 | . | . | . | . | -2 | -7
COc1ccccc1CC1CC(=O)N(c2ccccc2)C1=O (stereo unspecified) | -3 | -2 | -4 | -8 | i | 5 | -14 | 4
COc1ccc(-n2nc(C(=O)NCC(=O)Nc3cc(OC)ccc3OC)c3ccccc3c2=O)cc1 | 0 | -2 | -69 | -12 | i | -3 | 16 | 4
O=C(NCCc1ccccn1)C1CCCN(S(=O)(=O)Cc2ccccc2)C1 (stereo unspecified) | 1 | 0 | -5 | 0 | i | -2 | -9 | -27
CCOC(=O)Cc1nnc(NC(=O)CSc2ccccc2)s1 | 1 | 3 | -1 | 6 | i | 11 | -13 | .
Cc1cc(C)n(-c2cc(C)c(C)cc2Br)n1 | -5 | 1 | . | 0 | i | 13 | -9 | -32
O=Cc1cc2cc3c(cc2nc1Cl)OCCO3 | . | . | -16 | 2 | i | 2 | . | .
CCCCC(=O)Nc1ccc(C(=O)NNC(=S)NC(=O)c2ccco2)cc1 | 2 | -1 | 1 | 11 | i | 8 | . | 14
C=CC[C@@H](CC(=O)N[C@@H](CO)Cc1ccccc1)C(=O)N[C@@H](COC(=O)[C@@H](CC=C)Cc1ccc(F)cc1)Cc1c[nH]c2ccccc12 | -12 | -12 | 8 | . | . | . | -10 | -95
O=C(CC(C(=O)O)C1CCCO1)NCc1ccccc1 (stereo unspecified) | 1 | 2 | -4 | -11 | i | -4 | 1 | .
O=C(O)C1CN(c2nc(Cl)ccc2[N+](=O)[O-])C1 | 2 | 1 | 5 | 37 | i | 29 | . | -2
O=C(NCc1ccc(C(F)(F)F)cc1)c1ccc(-c2cccnc2)c2ccoc12 | -3 | -6 | . | . | . | . | 3 | -16
O=C(OCC(=O)C12CC3CC(CC(C3)C1)C2)c1ccccn1 | -2 | 1 | 2 | 5 | i | 5 | -24 | 5
COC(=O)c1cc(NC(=O)c2cccnc2)ccc1N1CCOCC1 | 4 | 2 | -8 | 4 | i | -5 | . | 2
O=S(=O)(Nc1cccnc1Cl)c1ccc(F)cc1 | -1 | 4 | . | -7 | i | -1 | -18 | -13
Cc1cccc(NC(=S)NCC(c2cccnc2)N(C)C)c1 (stereo unspecified) | 4 | 6 | -11 | -16 | i | -4 | . | 15
O=S(=O)(c1ccccc1F)N1CCN(CC(O)c2ccccc2)CC1 (stereo unspecified) | 3 | 1 | 12 | -6 | i | 4 | -12 | 7
O=C(NCC1CCCO1)c1cc2ccccc2oc1=O (stereo unspecified) | 2 | 7 | 3 | -2 | i | -7 | . | -1
O=c1c(Cl)c(NCCCO)cnn1-c1nc2ccccc2[nH]1 | 1 | 3 | 43 | 4 | i | -2 | -41 | .
O=C(COC(=O)COc1ccccc1[N+](=O)[O-])NCc1ccc2c(c1)OCO2 | -3 | 3 | 15 | . | . | . | -12 | -54
Cc1ccc(C)c(S(=O)(=O)N2CCCC2CNC(=O)C(=O)NC2CCCC2)c1 (stereo unspecified) | 4 | -2 | -11 | . | i | . | 9 | -7
CCCC(C)NC(=O)c1cc(Cl)ccc1OC (stereo unspecified) | 0 | 1 | 1 | 9 | i | -7 | -15 | .
N/C(=N\OS(=O)(=O)c1ccc(Br)cc1)c1ccncc1 | 3 | -1 | -5 | 0 | i | 0 | -12 | -17
C/C(=N\Nc1nc2ccccc2s1)c1ccc(Br)s1 | 1 | -14 | 84* | 2 | i | -4 | . | -1
O=C(N/N=C/c1ccncc1)C1CC1(c1ccccc1)c1ccccc1 (stereo unspecified) | -5 | -9 | -1 | -2 | i | 5 | . | 35

Ordered by SMILES length (lowest first): part of the list above.
SMILES | MT1-MMP act inh | MT1-MMP act inh RFP | CSC inhib | eIF4H FP inh | Rce1 inh | PABP FP inh | UUG fidelity | Env fusion inh
O=C(NCC1CCCO1)c1cc2ccccc2oc1=O (stereo unspecified) | 2 | 7 | 3 | -2 | i | -7 | . | -1
C/C(=N\Nc1nc2ccccc2s1)c1ccc(Br)s1 | 1 | -14 | 84* | 2 | i | -4 | . | -1
COC(=O)c1cc(NC(=O)c2cccnc2)ccc1N1CCOCC1 | 4 | 2 | -8 | 4 | i | -5 | . | 2
O=S(=O)(c1ccccc1F)N1CCN(CC(O)c2ccccc2)CC1 (stereo unspecified) | 3 | 1 | 12 | -6 | i | 4 | -12 | 7
O=C(N/N=C/c1ccncc1)C1CC1(c1ccccc1)c1ccccc1 (stereo unspecified) | -5 | -9 | -1 | -2 | i | 5 | . | 35

Next compounds follow:
SMILES | MT1-MMP act inh | MT1-MMP act inh RFP | CSC inhib | eIF4H FP inh | Rce1 inh | PABP FP inh | UUG fidelity | Env fusion inh
CC1=CC(C)(C)Nc2ccc(OC(=O)C(C)N3C(=O)c4ccccc4C3=O)cc21 (stereo unspecified) | -187 | 19 | 20 | 0 | i | -10 | 8 | -86
COc1ccc(N2CCN(C3CC(=O)NC3=O)CC2)cc1 (stereo unspecified) | 2 | 3 | 0 | -4 | i | 5 | -14 | -15
CN(CC(=O)Nc1ccc(F)c(F)c1F)C(=O)c1ccc(-n2cncn2)cc1 | 0 | 1 | . | . | . | . | -7 | -29
O=C(CSc1nc2ncc(Cl)cc2[nH]1)N(Cc1ccccc1)C1CCS(=O)(=O)C1 (stereo unspecified) | -2 | -10 | -2 | 1 | i | 0 | . | -3
CC1c2[nH]c3ccccc3c2C[C@H]2C(=O)N(CCO)CC(=O)N12 (stereo partly specified) | 4 | 3 | . | 5 | i | -6 | 8 | 0
CCNc1oc(/C=C/c2ccc(OCC)cc2)nc1C#N | 1 | -5 | 43 | 5 | . | 3 | -18 | -49
[O-][n+]1c(/C=C/c2ccccc2)ccc2ccccc21 | 1 | -2 | 17 | 19 | i | 2 | -25 | -106
CCc1cc(=O)oc2cc(C)cc(OC(C)C(=O)NCCCn3ccnc3)c12 (stereo unspecified) | 1 | 3 | -18 | -6 | i | -5 | -10 | -6
O=C(COC(=O)c1n[nH]c2ccccc12)Nc1cccc(S(=O)(=O)N2CCOCC2)c1 | 4 | -1 | . | -10 | i | -2 | . | -13
